Source: PubChem
AF4-AF9 inh = inhibitors of AF4 peptide binding to AF9, primary screen, biochemical, AlphaScreen, biotin-AF4 peptide, FLAG-AF9, single point. inhibition, % at 10 µM. AID 651704, 2012. 0.47% of 350,000 active. Protein AF-9 (Homo sapiens), P42568;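 active means every replicate reaching a set inhibition limit, whatever the replicate mean, cut at about 25% in these data; inconclusive means mean inhibition reaches that limit but some replicates miss it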;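 further: 0% = plate neutral control median and 100% = total signal loss; the record names both 10 and 1 µM as test concentration; the first replicate is given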
Target sequence (P42568 whole entry, looked up): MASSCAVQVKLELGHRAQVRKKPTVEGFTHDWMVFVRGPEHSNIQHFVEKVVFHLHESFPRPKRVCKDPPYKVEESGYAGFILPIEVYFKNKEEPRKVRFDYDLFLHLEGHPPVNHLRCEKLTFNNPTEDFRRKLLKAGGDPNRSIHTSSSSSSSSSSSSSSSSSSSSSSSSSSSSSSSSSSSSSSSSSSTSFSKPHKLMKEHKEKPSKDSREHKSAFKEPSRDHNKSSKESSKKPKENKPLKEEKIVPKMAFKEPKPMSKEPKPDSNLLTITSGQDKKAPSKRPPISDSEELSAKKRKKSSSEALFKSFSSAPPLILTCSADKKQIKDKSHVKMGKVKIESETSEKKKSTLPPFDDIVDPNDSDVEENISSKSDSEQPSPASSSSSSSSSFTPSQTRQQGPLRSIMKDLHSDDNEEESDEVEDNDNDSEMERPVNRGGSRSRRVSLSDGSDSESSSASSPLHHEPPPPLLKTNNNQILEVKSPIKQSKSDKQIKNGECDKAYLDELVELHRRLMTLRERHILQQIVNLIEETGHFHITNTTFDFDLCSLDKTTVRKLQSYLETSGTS
An asterisk follows results filed as active; & = joins results of further samples.

What do the screens show for `COCC#Cc1ccc2c(c1)O[C@@H](CN(C)Cc1ccc(F)cc1)[C@@H](C)CN([C@H](C)CO)S2(=O)=O`?
AF4-AF9 inh: 5.0

What do the screens show for `C[C@@H]1CN([C@H](C)CO)C(=O)c2cccc(N(C)C)c2O[C@H]1CN(C)S(C)(=O)=O`?
AF4-AF9 inh: -6.8

What do the screens show for `CC(C)NC(=O)N(C)C[C@H]1Oc2cc(Br)ccc2S(=O)(=O)N([C@@H](C)CO)C[C@@H]1C`?
AF4-AF9 inh: -2.8

Results for C/C=C/c1ccc2c(c1)O[C@H](CN(C)C(=O)COC)[C@@H](C)CN([C@@H](C)CO)S2(=O)=O ?
AF4-AF9 inh: -6.9

What do the screens show for `N/C(=N\C(=S)Nc1ccc2c(c1)OCO2)c1ccccc1`?
AF4-AF9 inh: 9.1

How did COc1ccc([Si](C)(C)[C@@H]2[C@@H](CCO)O[C@]3(C(=O)N(C)c4ccccc43)[C@H]2C)cc1 do in these assays?
AF4-AF9 inh: -0.3

Results for C[C@H](CO)N1C[C@H](C)[C@@H](CN(C)C(=O)Nc2ccc(C(F)(F)F)cc2)Oc2c(NC(=O)c3cnccn3)cccc2C1=O ?
AF4-AF9 inh: -3.3

What do the screens show for `COC(=O)C1=C(C)N(Cc2cccc(C(F)(F)F)c2)C(=NCc2ccc(C(F)(F)F)cc2)NC1c1cccc(C(F)(F)F)c1` (centres undefined)?
AF4-AF9 inh: -1.0

Results for C[C@H](CO)N1C[C@H](C)[C@H](CN(C)C(=O)Nc2ccc3c(c2)OCO3)Oc2ccc(NC(=O)CCCCCC(=O)Nc3ccccc3N)cc2C1=O ?
AF4-AF9 inh: 0.1

What do the screens show for `CN(C)CC(=O)Nc1ccc2c(c1)[C@H]1C[C@H](CC(=O)NCc3ccc(Cl)cc3)O[C@@H](CO)[C@H]1O2`?
AF4-AF9 inh: 1.1

What do the screens show for `O=S(=O)(NC[C@@H]1N[C@@H](CO)[C@H]1c1ccccc1)c1ccccc1`?
AF4-AF9 inh: 1.9

How did Cc1cc2nnc(SCc3ccc4c(c3)OCO4)n2c2ccccc12 do in these assays?
AF4-AF9 inh: -1.1

Results for Cc1ccc(C(=O)N2CCN(C/C=C/c3ccccc3)CC2)cc1S(=O)(=O)N1CCOCC1 ?
AF4-AF9 inh: 6.3

What do the screens show for `C[C@H](CO)N1C[C@H](C)[C@@H](CN(C)C(=O)C2CC2)Oc2ncc(C#CC3CCCC3)cc2C1=O`?
AF4-AF9 inh: -0.8

What do the screens show for `C[C@H](CO)N1C[C@H](C)[C@H](CN(C)S(=O)(=O)c2ccccc2)Oc2ccc(NC(=O)Cn3cnnn3)cc2CC1=O`?
AF4-AF9 inh: -0.3

What do the screens show for `COc1cccc(NC(=O)N(C)C[C@H]2OCc3cn(nn3)CCCC(=O)N([C@@H](C)CO)C[C@@H]2C)c1`?
AF4-AF9 inh: -1.4&2.5&1.5

Results for CCCN1[C@@H]2Cn3c(cccc3=O)[C@H]1[C@@H](C(=O)N[C@@H](C)c1ccccc1)[C@@H]2CO ?
AF4-AF9 inh: -1.5

How did COc1ccc(F)cc1-c1cc(C(=O)NCc2ccc(C(F)(F)F)cc2)[nH]n1 do in these assays?
AF4-AF9 inh: -5.4

How did CNC[C@H]1Oc2cc(C#CC3(O)CCCC3)ccc2S(=O)(=O)N([C@@H](C)CO)C[C@H]1C do in these assays?
AF4-AF9 inh: 0.8

How did CN1[C@H](C(=O)Nc2ccccc2)[C@@H](CO)[C@@H]2Cn3c(ccc(-c4ccccc4)c3=O)[C@@H]21 do in these assays?
AF4-AF9 inh: 1.0

Results for C[C@@H]1CCCCO[C@H](CN(C)C(=O)Cc2ccccc2)[C@@H](C)CN([C@H](C)CO)C(=O)c2cc(NS(=O)(=O)c3cn(C)cn3)ccc2O1 ?
AF4-AF9 inh: -2.2

How did O=C(c1cccc(F)c1)N1CC(=O)N2[C@H](C1)[C@H](c1ccc(C3=CCCC3)cc1)[C@@H]2CO do in these assays?
AF4-AF9 inh: inconclusive

What do the screens show for `C[C@@H]1CN([C@H](C)CO)C(=O)c2cccc(NS(=O)(=O)c3cn(C)cn3)c2O[C@@H]1CN(C)C(=O)Nc1ccc(C(F)(F)F)cc1`?
AF4-AF9 inh: -4.6

Results for COc1ccccc1Cc1c(-c2ccco2)nc2ccc(Br)cn12 ?
AF4-AF9 inh: 1.6

Results for C[C@@H]1CCCCO[C@H](CN(C)C(=O)Nc2ccc(C(F)(F)F)cc2)[C@H](C)CN([C@H](C)CO)C(=O)c2cc(NC(=O)c3ccncc3)ccc2O1 ?
AF4-AF9 inh: -2.0

How did Cc1ccc(S(=O)(=O)n2c(N)nc3cc(C)c(C)cc32)cc1 do in these assays?
AF4-AF9 inh: 0.9

Results for COc1ccc(NC(=O)N(C)C[C@H]2Oc3ccc(NC(=O)Nc4c(C)noc4C)cc3CC(=O)N([C@H](C)CO)C[C@H]2C)cc1 ?
AF4-AF9 inh: -9.2

What do the screens show for `C[C@H]1CN([C@@H](C)CO)C(=O)c2ccccc2-c2ccccc2CO[C@H]1CN(C)S(=O)(=O)c1ccccc1`?
AF4-AF9 inh: -0.7

How did CN(C)CC(=O)N[C@@H]1CC[C@@H](CCNC(=O)C2CCCC2)O[C@H]1CO do in these assays?
AF4-AF9 inh: 0.8

What do the screens show for `O=C(c1ccccc1F)N1CCC2CC1c1cc(-c3ccc4c(c3)OCO4)ccc12` (centres undefined)?
AF4-AF9 inh: -1.2

What do the screens show for `CN1c2ccc(C#Cc3cccnc3)cc2[C@H]2[C@H](CCN2C(=O)c2cccnc2)[C@@H]1CO`?
AF4-AF9 inh: 3.2

What do the screens show for `CCCNC(=O)N1CC2(CCN(Cc3cccc(OC)c3)CC2)c2c([nH]c3cc(OC)ccc23)[C@@H]1CO`?
AF4-AF9 inh: 15

Results for C[C@H]1CN([C@@H](C)CO)C(=O)c2cc(NC(=O)CCC(F)(F)F)ccc2O[C@@H]1CN(C)CC1CC1 ?
AF4-AF9 inh: -3.4

Results for CCc1cc2c(nc1CC)CCCN2Cc1ccc(Br)cc1 ?
AF4-AF9 inh: 5.6

What do the screens show for `CC(=O)NC(C)(c1ccccc1)c1nc(-c2ccc(S(C)(=O)=O)cc2)cs1` (centres undefined)?
AF4-AF9 inh: 1.5

What do the screens show for `COc1ccc(CN(C)C[C@@H]2Oc3ccc(NC(=O)Nc4c(C)noc4C)cc3CC(=O)N([C@H](C)CO)C[C@H]2C)cc1`?
AF4-AF9 inh: -2.7

Results for CCC(=O)N(C)C[C@@H]1Oc2cc(C#CCC(C)C)ccc2S(=O)(=O)N([C@H](C)CO)C[C@H]1C ?
AF4-AF9 inh: 1.1

What do the screens show for `COCC#Cc1ccc([C@H]2[C@H]3CN(C(=O)CN4CCOCC4)CC(=O)N3[C@H]2CO)cc1`?
AF4-AF9 inh: -2.8

Results for O=C(NC[C@H]1[C@@H](c2ccccc2)[C@H](CO)N1Cc1cccnc1)c1ccccn1 ?
AF4-AF9 inh: 1.3

How did COc1ccc(S(=O)(=O)N(C)C[C@@H]2OCCCC[C@H](C)Oc3ccc(NC(=O)c4ccncc4)cc3C(=O)N([C@@H](C)CO)C[C@H]2C)cc1 do in these assays?
AF4-AF9 inh: -4.9

How did c1ccc(Oc2ccc(-c3cc(NCCc4cccnc4)n4nccc4n3)cc2)cc1 do in these assays?
AF4-AF9 inh: -10

What do the screens show for `CCOC(=O)C1CCCN(C(=O)/C=C/c2ccccc2)CC1` (centres undefined)?
AF4-AF9 inh: -10

What do the screens show for `CCCNC(=O)N(C)C[C@H]1Oc2cc(-c3ccccc3F)ccc2S(=O)(=O)N([C@@H](C)CO)C[C@H]1C`?
AF4-AF9 inh: -1.0

How did CCCN1[C@@H]2c3ccc(C4=CCCC4)c(=O)n3C[C@@H]2[C@@H](CO)[C@@H]1C(=O)NCC do in these assays?
AF4-AF9 inh: -0.5

What do the screens show for `C[C@@H]1CN([C@H](C)CO)C(=O)c2cc(NC(=O)c3ccncc3)ccc2O[C@@H]1CN(C)C(=O)NC1CCCCC1`?
AF4-AF9 inh: -3.6

Results for CCOC(=O)c1ccc(NC(=O)O[C@H]2[C@H](OC(=O)Nc3ccc4c(c3)OCO4)[C@@H](OC(=O)Nc3ccc4c(c3)OCO4)[C@@H](OC)O[C@@H]2CO)cc1 ?
AF4-AF9 inh: 3.6

How did Cc1noc(C)c1S(=O)(=O)N(C)C[C@@H]1Oc2ccc(NC(=O)C3CC3)cc2CC(=O)N([C@H](C)CO)C[C@@H]1C do in these assays?
AF4-AF9 inh: -14

Results for C[C@@H]1CCCCO[C@H](CN(C)C(=O)C2CCCCC2)[C@@H](C)CN([C@@H](C)CO)C(=O)c2cc(NC(=O)Cc3ccccc3)ccc2O1 ?
AF4-AF9 inh: 0.6

Results for CCNC(=O)[C@@H]1[C@@H](CO)[C@@H]2Cn3c(ccc(C4=CCCC4)c3=O)[C@H]1N2Cc1ccncc1 ?
AF4-AF9 inh: -1.3

What do the screens show for `O=C(Cc1ccncc1)NCC[C@@H]1CC[C@@H](NC(=O)C2CCOCC2)[C@H](CO)O1`?
AF4-AF9 inh: -0.4

How did O=C(Cc1ccncc1)NCC[C@H]1CC[C@@H](NC(=O)Nc2ccc(Cl)cc2)[C@H](CO)O1 do in these assays?
AF4-AF9 inh: 0.6

Results for C[C@H](CO)N1C[C@H](C)[C@@H](CN(C)C(=O)Nc2ccc(C(F)(F)F)cc2)Oc2ccc(NS(=O)(=O)c3ccccc3)cc2CC1=O ?
AF4-AF9 inh: 0.7

How did C[C@H](CO)N1C[C@H](C)[C@@H](CN(C)C(=O)Cc2ccccn2)Oc2ncc(C#CC3CC3)cc2C1=O do in these assays?
AF4-AF9 inh: -1.9

Results for CCC(=O)Nc1ccc2c(c1)C(=O)N(C)C[C@H](OC)[C@@H](C)CN(C(C)=O)[C@@H](C)CO2 ?
AF4-AF9 inh: 1.8

Results for Cc1cccc(-c2ccc([C@@H]3[C@H](CO)N4C(=O)CN(C(=O)c5ccccc5)C[C@@H]34)cc2)c1 ?
AF4-AF9 inh: 12

What do the screens show for `CO[C@@H](CN(C)S(=O)(=O)c1ccccc1)[C@@H](C)CN(C(=O)Nc1ccccc1F)[C@H](C)CO`?
AF4-AF9 inh: -0.8

Results for COc1ccccc1CNC(=O)C[C@@H]1C[C@H]2c3cc(NC(=O)NC4CCCC4)ccc3O[C@H]2[C@@H](CO)O1 ?
AF4-AF9 inh: -1.2

How did CC1(C(=O)NS(=O)(=O)c2cccc(Cl)c2)CCN1C(=O)CC1CCCC1 (centres undefined) do in these assays?
AF4-AF9 inh: -0.7

Results for CCNC(=O)[C@H]1[C@H](CO)[C@H]2Cn3c(ccc(-c4ccc(F)cc4)c3=O)[C@@H]1N2C(=O)C1CC1 ?
AF4-AF9 inh: -0.1

How did CCC(=O)N1C[C@H](C)[C@H](OC)CN(C)C(=O)c2cc(NC(=O)Nc3cccc(F)c3)ccc2OC[C@H]1C do in these assays?
AF4-AF9 inh: 3.9

What do the screens show for `CC=Cc1ccc2n(c1=O)C[C@@H]1[C@@H](CO)[C@H](C(=O)NCC)N(C(=O)CC3CC3)[C@H]21` (mixture of isomers)?
AF4-AF9 inh: -0.2

What do the screens show for `C[C@H](CO)N1C[C@H](C)[C@H](CN(C)Cc2ccc(F)cc2)Oc2ncccc2C1=O`?
AF4-AF9 inh: -12

How did Cc1noc(C)c1S(=O)(=O)Nc1ccc2c(c1)C(=O)N([C@@H](C)CO)C[C@H](C)[C@@H](CN(C)C(=O)c1ccncc1)OCCCC[C@H](C)O2 do in these assays?
AF4-AF9 inh: -0.5

How did CO[C@H](CN(C)Cc1cc(F)ccc1F)[C@H](C)CN(C(=O)Nc1ccc(C(F)(F)F)cc1)[C@H](C)CO do in these assays?
AF4-AF9 inh: -2.9

What do the screens show for `C[C@@H]1CN([C@H](C)CO)C(=O)c2cc(NS(=O)(=O)c3cn(C)cn3)ccc2O[C@@H](C)CCCCO[C@@H]1CN(C)S(C)(=O)=O`?
AF4-AF9 inh: 0.8

What do the screens show for `CN1C(=O)c2cc(NC(=O)c3cccc(F)c3)ccc2OC[C@@H]2O[C@H](CC(=O)NCc3ccccc3Cl)CC[C@@H]21`?
AF4-AF9 inh: -0.5

Results for CCC(=O)N(C)C[C@H]1Oc2cc(C#CCOC)ccc2S(=O)(=O)N([C@@H](C)CO)C[C@@H]1C ?
AF4-AF9 inh: 0.5

Results for CC(C)NC(=O)N(C)C[C@@H]1Oc2ncc(C#Cc3ccccc3F)cc2C(=O)N([C@H](C)CO)C[C@H]1C ?
AF4-AF9 inh: -3.6

What do the screens show for `COC(=O)C[C@H]1CC[C@@H]2[C@H](COc3ccc(NC(=O)c4ccc(F)cc4)cc3C(=O)N2C)O1`?
AF4-AF9 inh: -2.2

Structures listed so far containing a CF3 group (8):
Results for C[C@H](CO)N1C[C@H](C)[C@@H](CN(C)C(=O)Nc2ccc(C(F)(F)F)cc2)Oc2c(NC(=O)c3cnccn3)cccc2C1=O ?
AF4-AF9 inh: -3.3

What do the screens show for `COC(=O)C1=C(C)N(Cc2cccc(C(F)(F)F)c2)C(=NCc2ccc(C(F)(F)F)cc2)NC1c1cccc(C(F)(F)F)c1` (centres undefined)?
AF4-AF9 inh: -1.0

How did COc1ccc(F)cc1-c1cc(C(=O)NCc2ccc(C(F)(F)F)cc2)[nH]n1 do in these assays?
AF4-AF9 inh: -5.4

What do the screens show for `C[C@@H]1CN([C@H](C)CO)C(=O)c2cccc(NS(=O)(=O)c3cn(C)cn3)c2O[C@@H]1CN(C)C(=O)Nc1ccc(C(F)(F)F)cc1`?
AF4-AF9 inh: -4.6

Results for C[C@@H]1CCCCO[C@H](CN(C)C(=O)Nc2ccc(C(F)(F)F)cc2)[C@H](C)CN([C@H](C)CO)C(=O)c2cc(NC(=O)c3ccncc3)ccc2O1 ?
AF4-AF9 inh: -2.0

Results for C[C@H]1CN([C@@H](C)CO)C(=O)c2cc(NC(=O)CCC(F)(F)F)ccc2O[C@@H]1CN(C)CC1CC1 ?
AF4-AF9 inh: -3.4

Results for C[C@H](CO)N1C[C@H](C)[C@@H](CN(C)C(=O)Nc2ccc(C(F)(F)F)cc2)Oc2ccc(NS(=O)(=O)c3ccccc3)cc2CC1=O ?
AF4-AF9 inh: 0.7

How did CO[C@H](CN(C)Cc1cc(F)ccc1F)[C@H](C)CN(C(=O)Nc1ccc(C(F)(F)F)cc1)[C@H](C)CO do in these assays?
AF4-AF9 inh: -2.9

The list is partial, so the mix of outcomes need not match the whole.
